# GCN5L2 inh: inhibitors of human GCN5L2 histone acetyltransferase; Q92830; GCN5L2 HAT assay, ThioGlo1 CoA-SH fluorescence; Potency, µM (highest dose often 58.9 µM), for the others: top-dose activity change, negative = inhibition, most hits filed as inhibitors; 0.21% of 390,000 active; AID 504327; active = well fitted inhibition curve with a large enough effect; inconclusive = small, poorly fitted or top-dose-only effect, or another doubt; inactive = no such curve, though single readings can be large or run the other way
# Target sequence (Q92830 whole entry, looked up): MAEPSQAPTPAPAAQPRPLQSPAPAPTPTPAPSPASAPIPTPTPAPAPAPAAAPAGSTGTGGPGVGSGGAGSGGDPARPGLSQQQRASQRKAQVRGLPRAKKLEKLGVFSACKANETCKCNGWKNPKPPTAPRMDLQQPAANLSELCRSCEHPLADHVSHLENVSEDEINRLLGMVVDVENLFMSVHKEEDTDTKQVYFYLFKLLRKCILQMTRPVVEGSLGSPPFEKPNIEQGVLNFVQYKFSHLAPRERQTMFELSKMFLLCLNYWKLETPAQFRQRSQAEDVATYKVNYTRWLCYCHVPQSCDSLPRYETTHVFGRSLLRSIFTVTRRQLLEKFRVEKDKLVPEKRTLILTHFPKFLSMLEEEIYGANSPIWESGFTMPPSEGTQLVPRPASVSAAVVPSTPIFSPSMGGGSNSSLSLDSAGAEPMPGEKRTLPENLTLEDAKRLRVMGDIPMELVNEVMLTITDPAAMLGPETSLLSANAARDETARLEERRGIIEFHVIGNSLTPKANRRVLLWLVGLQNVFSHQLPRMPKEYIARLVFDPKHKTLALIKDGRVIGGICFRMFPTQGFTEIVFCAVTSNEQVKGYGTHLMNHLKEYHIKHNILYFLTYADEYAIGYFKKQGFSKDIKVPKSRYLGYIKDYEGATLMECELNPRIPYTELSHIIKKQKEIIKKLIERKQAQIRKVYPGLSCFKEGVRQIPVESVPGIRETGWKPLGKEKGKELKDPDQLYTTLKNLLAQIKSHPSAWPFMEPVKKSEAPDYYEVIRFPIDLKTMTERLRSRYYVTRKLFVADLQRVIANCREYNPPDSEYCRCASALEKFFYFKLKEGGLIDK
#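 Compounds, pin-transferred from DMSO stocks, meet 20nM GCN5L2 for 15 min before the reaction begins with H3(1-25) peptide (75uM) and acetyl-CoA (70uM). Thiol-reactive ThioGlo1 reports CoA release over 20 min at room temperature.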
# * marks the source's active call; other numbers are inactive results; ? = inconclusive; & = joins results of further samples; [ ] = dose if it differs, or a comment. % is set by controls: 0 for no effect and ±100 for the full control effect; potency is the fitted concentration of half-maximal effect. Only part of the results is shown; most or all hits stand in other tables.
SMILES,GCN5L2 inh
O=C(NCc1cccnc1)c1ccc(Br)s1,-14%
O=C(CCCCl)Oc1ccc2cc(-c3ccc4ccccc4n3)c(=O)oc2c1,-5%
COCc1nnc(NC(=O)CS(=O)(=O)Cc2ccccc2)s1,-3%
CCN1CCCC1CN(Cc1cc2ccc(C)cc2[nH]c1=O)C(=S)Nc1ccccc1C(=O)OC (centres undefined),2%
Cc1noc(NS(=O)(=O)c2ccc(N)cc2)c1C,2%
Cn1c(SCc2cc(=O)[nH]c(C(C)(C)C)n2)nnc1C(F)(F)F,-1%
CCOC(=O)N1CCN(C(=O)CCCOc2ccccc2)CC1,3%
Cc1ccc(-c2nnn(CC(=O)N(CC3CCCO3)C(C(=O)NC3CCCCC3)c3ccc(F)cc3)n2)o1 (centres undefined),-4%
CCOc1ccc(CCNS(=O)(=O)c2ccc3c(c2)N(C(C)=O)CCO3)cc1OCC,-1%
Cc1cc(OCc2cc(C(=O)N3CCN(C)C(=O)[C@@H]3C)no2)cc(C)c1Cl,-5%
COc1ccc(-c2ccc(NS(=O)(=O)c3ccc(OC)c(OC)c3)cc2)nn1,-5%
CSc1ncccc1C(=O)OCC(=O)N1CCN(C(=O)c2ccco2)CC1,-1%
Cc1occc1-c1nnc(SCC(=O)N2CCCc3ccccc32)n1Cc1ccco1,?
O=C(Nc1nnc(-c2ccncc2)o1)c1cccc(N2C(=O)CCC2=O)c1,-9%
COc1ccc(/C(N)=N/OC(=O)C2CCCCC2)cc1,-5%
CCOc1ccc(C2=Nn3c(nnc3-c3ccco3)SC2)cc1,-9%
COc1ccc(NS(=O)(=O)c2cccc(NC(=O)CCC(=O)c3ccc(Cl)cc3)c2)cc1,-7%
CCC1Oc2ccccc2N(CC(=O)NCCN2CCc3ccccc3C2)C1=O (centres undefined),2%
CCC(C)NC(=O)c1cn(CC)c2ccc(S(=O)(=O)N3CCCCC3)cc2c1=O (centres undefined),-8%&1%
O=C(c1cnn(-c2ccccc2)c1)c1ccc2ccccc2c1O,-8%
COc1ccc(NC(=O)CSc2nc(N)c3cc4c(nc3n2)CCCC4)c(OC)c1,2%
CCC1CCCCN1CCCNC(=O)c1ccc(N2CCOCC2)c(NS(=O)(=O)c2ccc(OC)cc2)c1 (centres undefined),-9%
COc1ccc(OC)c(S(=O)(=O)Nc2ccc(C)c(C)c2)c1,-2%[0.501 µM]
O=[N+]([O-])c1ccc2nc(NS(=O)(=O)c3ccc(F)cc3)sc2c1,-1%
COc1ccc(-c2[nH]c(-c3ccc(SC)cc3)nc2SCC(=O)Nc2nccs2)cc1,-6%

# Next part:
SMILES,GCN5L2 inh
O=C(COc1cccc(Cl)c1)N1CCC(c2nc3ccccc3s2)CC1,-1%
COc1ccccc1CNC(=S)NCc1ccc(F)cc1,-2%
CCc1cccc(NC(=O)Cn2c(-c3ccccc3)cc(C(C)=O)c2C)c1,-1%
Cn1c(=O)c2c(nc(NC(Cc3ccccc3)C(=O)O)n2Cc2ccccc2)n(C)c1=O (centres undefined),-4%
Cc1ccc(C(=O)Nc2ncc(Cc3ccc(F)cc3)s2)o1,-10%
O=[N+]([O-])c1ccc2nc(-c3cccnc3)[nH]c2c1,-3%
COC(=O)c1ccccc1NC(=O)CSc1nnc(-c2ccncc2)o1,-20%
Cc1cc(NCCN2CCOCC2)n2nc(C)c(-c3ccc(Cl)cc3)c2n1,-3%
Cc1cc(C)cc(OCC(=O)Nc2ccc3c(c2)OCO3)c1,0%
COc1cc(NC(=O)CC2C(=O)OCCN2Cc2ccccc2)cc(OC)c1 (centres undefined),-5%
CCOC(=O)C(Cc1cc(C(C)=O)ccc1OC(C)C)C(=O)OCC,1%
O=C(O)/C=C\C(=O)Nc1ccc(Oc2ccc(Br)cc2)cc1,-2%
CC(C)(C)c1ccc(C(=O)NCCC(=O)Nc2cc(Cl)ccc2N2CCOCC2)cc1,-15%
CCOc1ccc2nc(SCC(=O)Nc3ccc4c(c3)OCCO4)[nH]c2c1,-4%
COc1cc2cc3c4cc(OC)c(OC)cc4cc[n+]3c(C)c2cc1OC,?
CCN(CC(=O)Nc1cc(Cl)ccc1C)C(=O)CSCc1ccccc1,-4%
O=C(NCCc1cnccn1)C1CCC(=O)N(Cc2ccc(Cl)cc2)C1 (centres undefined),-7%
O=C(CC1N=C2c3ccccc3N=C(SCc3cccc(F)c3)N2C1=O)NCc1ccc2c(c1)OCO2 (centres undefined),-14%
CS(=O)(=O)CCC(C(=O)Nc1ccc2c(c1)OCO2)N1Cc2ccccc2C1=O (centres undefined),-1%
N#Cc1cccc(NC(=O)C2CCCN(C(=O)c3ccc(Cl)cc3)C2)c1 (centres undefined),0%
COc1cc(/C=C(\C#N)C(=O)NCC2CCCO2)ccc1OC(=O)c1ccco1 (centres undefined),-6%
O=C(CSc1nnc(-c2cccs2)o1)Nc1cccc(C(F)(F)F)c1,-9%
CCCn1cnc2c(sc3nc4c(cc32)CSC(C)(C)C4)c1=O,-7%
CCOCCCNc1nc2c([nH]1)c(=O)n(C)c(=O)n2C,-5%
O=C(CCNC(=O)c1ccc([N+](=O)[O-])cc1)Nc1cccc(S(=O)(=O)N2CCOCC2)c1,1%

# (listing goes on)
SMILES,GCN5L2 inh
O=C(CSc1ccccc1)Nc1ccc(NC(=O)c2ccco2)cc1,-11%
COc1ccc(OC)c(NC(=S)NCc2cccnc2)c1,-1%
CCOC(=O)c1sc(/N=C/N(C)C)c(C(=O)OCC)c1C,-4%
CCOc1cc(NC(=S)NCCCN(C)C)c(OCC)cc1NC(=O)C1CC1,-28%
CCCNS(=O)(=O)c1ccc(OCC(=O)NCc2ccco2)cc1,-9%
CS(=O)(=O)N(CC(=O)N/N=C/c1ccc(OCC(=O)N2CCOCC2)cc1)c1ccccc1Cl,0%
CC(=O)c1cccc(NC(=O)CSc2ccc(-c3ccc4c(c3)OCO4)nn2)c1,1%
COc1ccc(CNC(=O)C2CCCN(S(=O)(=O)N(C)c3ccc(F)cc3)C2)cc1OC (centres undefined),3%
O=C(Nc1ccc(N2CCN(C(=O)c3ccccc3)CC2)cc1)c1cc([N+](=O)[O-])ccc1N1CCOCC1,-9%
Cc1nc(NC(=O)CSc2ccc(-c3nc4ccccc4[nH]3)cn2)sc1C,-8%
O=C1CCc2cc(S(=O)(=O)N3CCC(C(=O)NC4CCCC4)CC3)ccc2N1,-2%
Cn1cccc1C(=O)NC(=O)COC(=O)Cc1coc2ccc3ccccc3c12,-5%
O=C(NC1CC(=O)N(c2ccccc2)C1)N1CCN(C(=O)c2ccco2)CC1 (centres undefined),-5%
CC(C1CC2CCC1C2)N1CC(O)=C(c2nc3ccccc3[nH]2)C1=N (centres undefined),-8%
CC12CC(c3ccccc3O1)N(C(=O)c1ccco1)C(=S)N2c1ccccc1 (centres undefined),-2%[0.501 µM]
CC(C)CNC(=O)CSc1ccc(S(=O)(=O)N2CCN(C)CC2)cn1,-13%
Cc1ccc(Nc2n[nH]c(C)c2[N+](=O)[O-])cc1,0%
O=C(NC1CCCCC1)C(c1ccc(F)cc1)N(C(=O)c1csnn1)C1CCCC1 (centres undefined),1%
CCOc1ccc(NC(=O)COc2nsnc2N2CCCCC2)cc1,10%
Cc1ccccc1N1C(=O)CC(N(O)c2ccccc2)C1=O (centres undefined),-5%
Cc1ccc(NC(=S)N(Cc2ccc(Cl)cc2)Cc2ccc(C(=O)O)cc2)cc1Cl,?
CCCNC(=S)Nc1ccc(Br)cc1,-5%
Cc1ccccc1SCCNC(=O)c1ccccc1Br,-7%
CC(=O)c1cccc(NC(=S)N2CCC(Cc3ccccc3)CC2)c1,-6%
CCn1c(SCC(=O)Nc2ccc3c(c2)oc2ccccc23)nnc1-c1ccc(N)cc1,-6%

# The results go on:
SMILES,GCN5L2 inh
O=C(Nc1cc(S(=O)(=O)N2CCOCC2)ccc1N1CCCC1)C1CC1,4%
CCOC(=O)c1cnn(Cc2cccc(Cl)c2)c1C,-1%
COC(=O)C1=C(C)NC2=C(C(=O)CCC2)C1c1ccc(-c2ccsc2C(=O)OC)o1 (centres undefined),-1%
CC(C)(C)c1ccc(OC(=O)c2ccccc2)cc1,-3%
Cn1c(SCc2ccccc2)nc2ccsc2c1=O,-9%
CC(C(=O)Nc1cc([N+](=O)[O-])ccc1Cl)N1CCN(c2ccc(O)cc2)CC1 (centres undefined),-21%
CCCCN1C(=O)C(O)(CC(=O)c2ccccn2)c2ccccc21 (centres undefined),-1%
COc1cccc(-c2nc3n(n2)C(c2ccc4c(c2)OCO4)C(C(N)=O)=C(C)N3)c1 (centres undefined),-11%
CC(C)NC(=O)CCn1c(SCc2c(F)cccc2Cl)nc2c(sc3ccccc32)c1=O,-3%
CCOC(=O)c1c(C=O)c(C)n(Cc2ccc(Cl)cc2)c1C,-18%
CCc1ccc(NC(=O)C2CCCN(S(=O)(=O)c3cccc4nsnc34)C2)cc1 (centres undefined),-5%
O=C(CCN1C(=O)/C(=C/c2ccccc2F)SC1=S)NCCc1ccc(O)cc1,-4%
CC(=O)NCc1cccc(CNC(C)=O)n1,-14%
Cc1ccc(NC(=O)COC(=O)C2=COCCO2)c([N+](=O)[O-])c1,0%
CCCn1c(N)c(C(=O)CSc2nnc(C3CC3)n2C2CC2)c(=O)[nH]c1=O,-4%
Cn1nc(C(=O)NNC(=O)c2ccccc2F)c2ccccc2c1=O,-1%
COc1ccc(Cc2nnc(SCC(=O)Nc3ccccc3)[nH]c2=O)cc1,0%
O=C(COC(=O)c1cc(=O)c2ccccc2o1)Nc1ccc2ccccc2c1,-2%
C/C(N)=C(/C#N)C(=O)COC(=O)c1cccc(C)c1O,-2%
COc1ccc(C(=O)COC(=O)c2cccnc2SC)cc1,-20%
COc1cc(N)ccc1Cc1ccc(N)cc1OC,-6%
O=C(NNC(=O)C1CCCC1)c1ccccc1F,-4%
Cc1c(NC(=O)CSc2nc(N)cc(N)n2)c(=O)n(-c2ccccc2)n1C,-4%
COC(=O)c1ccc(C)c(NC(=O)CSc2sc3c(O)cc(=O)[nH]c3c2C#N)c1,?
COc1ccc2c(CNCCc3ccccc3C)c(C(=O)O)n(Cc3ccccc3C)c2c1,2%

# By substructure: the entries above containing a tert-butyl group (3)
SMILES,GCN5L2 inh
Cn1c(SCc2cc(=O)[nH]c(C(C)(C)C)n2)nnc1C(F)(F)F,-1%
CC(C)(C)c1ccc(C(=O)NCCC(=O)Nc2cc(Cl)ccc2N2CCOCC2)cc1,-15%
CC(C)(C)c1ccc(OC(=O)c2ccccc2)cc1,-3%

# (further entries)
SMILES,GCN5L2 inh
CN(C)/C=N/c1sccc1C(N)=O,-4%
Cc1cccc(NC(=S)NC2CC3CCCC(C2)N3Cc2cccs2)c1C (centres undefined),2%
CC(=O)Nc1c2c(nn1-c1ccc(C)cc1C)CSC2,2%
NC(N)=N/N=C\c1c(Cl)cccc1Cl,3%
Cc1ccc(NC(=O)C2CCN(S(=O)(=O)c3ccc4c(c3)NC(=O)C(C)S4)CC2)c(C)c1 (centres undefined),-3%
S=C(NCc1ccco1)Nc1ccc(Cl)cc1,-4%
O=C(C1CC1)N1CCN(C(c2ccccc2)c2ccccc2)CC1,-1%
Cc1ccccc1NC(=O)CCn1cnc2onc(-c3ccc(F)cc3)c2c1=O,24%
CCC(=O)N1C(C(=O)N2CCCC2)CSC1c1ccc(OC)cc1 (centres undefined),0%
C[C@H](CO)N1C[C@H](C)[C@@H](CN(C)Cc2ccc(Cl)c(Cl)c2)Oc2c(NS(=O)(=O)c3cccs3)cccc2C1=O,-5%
Cc1cccc2[nH]c3c(N4CCC5(CC4)OCCO5)ncnc3c12,-1%
Cc1c(C)[n+](=O)c(-c2ccc(F)cc2)c(C)n1[O-],-1%
Cc1cccc2nc(-c3ccc(N(C)C)cc3)c(Nc3ccc4c(c3)OCO4)n12,-6%
O=C(NNC(=O)c1ccc(F)cc1F)c1ccc(-n2cnnn2)cc1,-3%
Cc1ccc(C(=O)OCc2cc(=O)n3ccsc3n2)s1,2%
Cc1cccc(N(Cc2ccccc2)C(=O)c2ccccc2F)c1,-4%
COc1cccc(NC(=O)CN2C(=O)CSc3ccc(S(=O)(=O)N4CCOCC4)cc32)c1,-6%
CC(C)NC(=O)/C(=C/c1ccco1)c1ccccc1,-2%
COc1ccc(-c2cc3ccccc3n2CC(O)Cn2nc(C)cc2C)cc1 (centres undefined),-8%
Cc1ccc(CNc2nc(-c3cccs3)nc3ccccc23)cc1,-2%
COc1ccc(C(=O)NCC(=O)OCC(=O)NCc2ccc3c(c2)OCO3)cc1,-3%
COc1ccc(CCN2C(=O)C3CC(C)=C(C)CC3C2=O)cc1OC (centres undefined),-4%
Cc1ccccc1NS(=O)(=O)c1ccc(N2CCCC2=O)cc1,2%
CSc1cccc(NC(=S)N2CCC(N(C)C3CCCCCC3)CC2)c1,2%
COc1ccc(-c2noc(CCC(=O)N3CCN(c4cccc(C)c4C)CC3)n2)cc1,-9%
CCCCNC(=O)C1CCN(C(=O)Nc2ccc(C)cc2)CC1,-2%
O=C(/C=C/c1ccc2c(c1)OCO2)NCc1cn2cc(Cl)ccc2n1,-10%
CC(=O)N(CCCN(C)C)c1nc2ccc(C)cc2s1,-4%
CC(C)Oc1ccc(CNC(=O)C2CCN(Cc3cc4ccccc4n3Cc3ccccc3)CC2)cc1,-2%

# An excerpt from above in order of the GCN5L2 inh value, largest number first:
SMILES,GCN5L2 inh
Cc1ccccc1NS(=O)(=O)c1ccc(N2CCCC2=O)cc1,2%
CCOc1ccc(CCNS(=O)(=O)c2ccc3c(c2)N(C(C)=O)CCO3)cc1OCC,-1%
S=C(NCc1ccco1)Nc1ccc(Cl)cc1,-4%
CCn1c(SCC(=O)Nc2ccc3c(c2)oc2ccccc23)nnc1-c1ccc(N)cc1,-6%
O=C(/C=C/c1ccc2c(c1)OCO2)NCc1cn2cc(Cl)ccc2n1,-10%
COc1ccc(C(=O)COC(=O)c2cccnc2SC)cc1,-20%
